High-throughput results: PubChem BioAssay, SRMLSC
H5N1 CPE: MDCK cell protection from H5N1 avian flu; cytopathic effect, luminescence, 72 h; hits give high values; no value below 0 was filed and about half of the inactive calls have no number; reference of the scale not given here; inhibition, % at 50 µM; hit rate 0.07% among 96,000; in the data active = inhibition above about 25%
Numbers without * were called inactive; i = inactive.

SMILES	H5N1 CPE
CCN(CC)C(=O)c1sc(NC(=O)C(Sc2ccccc2)c2ccccc2)c(C(=O)OC(C)C)c1C (stereo unspecified)	2.0
CC1CCN(c2ccccc2N)CC1	0.6
O=C(COC(=O)c1ccccc1SCC(=O)NC1CCCCC1)NC1CCCCC1	i
CC1(C)Cc2c(sc(NC(=O)c3ccco3)c2C#N)CO1	1.4
Cc1cccc(-n2cnc(C(=O)N/N=C\c3ccc(Br)cc3)c2)n1	0.1
Cc1ccc(C(C)C)c(OCC(O)CN2CC(C)OC(C)C2)c1 (stereo unspecified)	i
CC(C)C(NS(=O)(=O)c1cccc2nsnc12)C(=O)NCCC1=CCCCC1 (stereo unspecified)	0.5
COc1ccc(Nc2ncnc3ccccc23)cc1	0.3
Cc1ccc(-c2nc(N)c3c(-c4ccc(C)cc4)nn(C(C)(C)C)c3n2)cc1	i
CCOC(=O)c1c(C)[nH]c(N=Nc2ccccc2C)c1C	i
CCCCOC(=O)c1ccc(NC(=O)c2cnccn2)cc1	1.4
CCOC(=O)Cc1csc(NC(=O)CSc2nc(N)c3c(C)c(C)sc3n2)n1	2.2
CCOC(=O)c1c(CN2CCOCC2)n(-c2ccccc2)c2cc(Br)c(OC)cc12	i
O=C(CCn1c(=O)[nH]c2ccccc2c1=O)NCCCN1CCN(c2cccc(Cl)c2)CC1	0.6
CC/C(=N/Nc1ccccc1)c1cnnc(SC)n1	i
O=C(Nc1ccc(Oc2ccc(NC(=O)c3ccco3)c(NC(=O)c3ccco3)c2)cc1)c1ccco1	i
Cc1ccccc1C(=O)c1c[nH]c(C(=O)NCc2ccco2)c1	0.6
O=S(=O)(c1ccc2c(c1)OCCO2)N(Cc1ccc(F)cc1)Cc1nnc(-c2cccs2)o1	i
Cc1ccc(NC(=O)C2CCN(S(=O)(=O)c3cnc[nH]3)CC2)nc1	i
CC(C)c1nc2ccccc2n1CCC(=O)O	0.0
COc1cc2c(cc1OC)CN(C(=O)c1ccccc1C(=O)O)CC2	1.2
OC(CN1C2=NCCCN2c2ccccc21)c1ccc(Br)cc1 (stereo unspecified)	i
CC1(C)C(c2ccccc2)=NC(c2ccc(F)cc2)N1O (stereo unspecified)	0.2
COc1cc(Nc2nnc(C)s2)c(Cl)cc1Cl	i
Cc1cc(=O)n2nc(N3CCC(C(=O)NCCc4ccccc4)CC3)sc2n1	0.8
CCN(Cc1ccccc1)C(=O)Cn1cnc2c1c(=O)n(C)c(=O)n2C	0.5
O=C(O)c1nc2ccccc2nc1C(=O)O	0.0
CC1(C)CC(=O)C(C2NCCc3ccccc32)=C(O)C1 (stereo unspecified)	0.5
O=C(Nc1cccc(Br)c1)c1ccn[nH]1	i
COc1cccc(C(c2nnnn2CS(=O)(=O)c2ccc(C)cc2)N2CCN(C)CC2)c1OC (stereo unspecified)	i
Clc1cccc(-c2nnc(-c3ccccc3)o2)c1	i
Cn1c(NCCN2CCOCC2)nc2c1c(=O)n(Cc1cccc(Cl)c1)c(=O)n2C	i
Cc1ccc(S(=O)(=O)N2CCCC2C(=O)Nc2nc3ccccc3s2)cc1 (stereo unspecified)	1.4
COC(=O)c1ccc(OCC(=O)c2ccc(O)cc2O)cc1	i
Cc1ccc(C)c(NC2=NCCCS2)c1	0.4
CCOC(=O)N1CCN(C(=O)c2ccc3c(SCC(=O)O)c4c(nc3c2)CCC4)CC1	1.9
Cc1cc(C(=O)Nc2cnn(Cc3ccc(Cl)cc3Cl)c2)no1	i
COc1cccc(NC(=O)CCP(C)(=O)O)c1	i
O=C1C2CC=CCC2C(=O)N1c1n[nH]c(CCc2ccccc2)n1 (stereo unspecified)	i
O=S(=O)(c1ccccc1)n1ccc(-c2cnc(-c3ccccc3)s2)n1	i
CC(C)C(NC(=O)c1ccccc1NC(=O)c1ccco1)C(=O)O (stereo unspecified)	0.5
Cc1nc(-c2cccc(S(=O)(=O)N3CCCCCC3)c2)cs1	1.9
Cc1cc(C)n(C(=O)CCC2COc3ccccc3O2)n1 (stereo unspecified)	i
CC(=O)OCC1OC(n2ccc3ccccc32)C(OC(C)=O)C(OC(C)=O)C1OC(C)=O (stereo unspecified)	i
CCC(=O)NC(Nc1nc2ccc(C)cc2s1)(C(=O)OC)C(F)(F)F (stereo unspecified)	1.3
O=c1cc(N2CCc3ccccc3C2)[nH]c(=O)n1C1CCCCC1	i
O=C(NC1CCCCC1)C1CCN(S(=O)(=O)N2CCCCCC2)CC1	0.2
O=C(CCNc1ccc(Cl)c(C(F)(F)F)c1)c1ccco1	i
CC(C)(C)C1(C)OC(C(N)=O)C(C(N)=O)O1 (stereo unspecified)	0.1
CN(C)c1nc(N)nc(-c2cccnc2)n1	0.4
COc1ccc(CNC(=S)Nc2cccc(C)c2)cc1	i
O=C(CSc1ccc(/C=N/NC(=O)c2cccc(F)c2)o1)Nc1ccccc1	0.2
O=C(Cc1cccs1)N1CCC(c2nc3c(nnn3Cc3ccccc3Cl)c(=O)[nH]2)CC1	1.0
O=C(CSCc1ccc(F)cc1)N1CCN(c2ccc(F)cc2)CC1	2.5
Cc1cc(NC(=O)CSc2nc(C(C)C)nc3sc4c(c23)CCCC4)no1	0.8
CCOC(=O)NC(=O)CSc1ccccn1	i
O=C(NNc1ccccc1[N+](=O)[O-])Nc1ccccc1	i
CCOc1nc(NCCc2ccc(OC)c(OC)c2)nc(NC(C)(C)CO)n1	i
O=C(CSc1nnc(C2COc3ccccc3O2)o1)Nc1nccs1 (stereo unspecified)	i
COc1ccc(C)cc1NC(=O)CSc1nnc(-c2ccccn2)n1Cc1ccco1	i
(listing goes on)
SMILES	H5N1 CPE
CCc1nc2ccccc2n1Cc1ccc(OC)c(OC)c1	0.8
Cc1ccc2nsnc2c1S(=O)(=O)N1CCN(C(=O)C2CCCO2)CC1 (stereo unspecified)	0.8
COc1cccc(NC(=O)c2ocnc2C)c1	i
O=C(CCc1nc2ccccc2[nH]1)Nc1ccc(F)cc1	i
COc1ccc(OC)c2[nH]c(=O)c(CCNC(=O)C(C)C)cc12	0.3
O=C(O)CSCC(=O)Nc1cc(C(F)(F)F)ccc1Cl	i
Cc1ccc(C(O)c2nccn2C)o1 (stereo unspecified)	i
CC1(C)CC(=O)C2=C(C1)OC(N)=C(C#N)C2c1ccccc1OC(=O)N1CCOCC1 (stereo unspecified)	i
COc1cccc(NC(=O)N2CCN(c3cccc(C)c3C)CC2)c1	i
C/C(CC(=O)NCCCN1CCOCC1)=N\NC(=O)COc1ccc(Cl)cc1	1.6
Cc1occc1-c1nnc(SCC(=O)N2CCN(c3ccccc3)CC2)n1C	1.0
Cc1cccc(NC(=O)CN(C)S(=O)(=O)c2ccc(Br)cc2)n1	0.8
C=CCn1c(=O)c2ccccc2n2c(SCC(=O)NCCc3ccccc3)nnc12	0.7
Cc1ccc(C(=O)NCCCCNC(=O)c2ccc(C)o2)o1	0.5
CCN1C(=O)C(Cc2nc3ccccc3c(=O)n2-c2ccccc2)c2ccccc21 (stereo unspecified)	i
CC(NC(=O)c1ccc(Cn2cc([N+](=O)[O-])cn2)o1)c1ccccc1 (stereo unspecified)	0.8
Cc1ccccc1OCC(=O)NC(=S)Nc1ccc(Br)c(C)n1	0.5
COc1c(N2CCN(C(=S)Nc3ccc(F)cc3)C(C)C2)c(F)cc2c(=O)c(C(=O)O)cn(C3CC3)c12 (stereo unspecified)	0.6
CCOC(=O)Cc1nnc(NC(=O)CC)s1	i
CCOC(=O)C(C)On1c(-c2ccc(Cl)cc2)nc2ccc([N+](=O)[O-])cc21 (stereo unspecified)	3.9
COc1cccc(OC)c1-c1nn2c(-c3ccccc3Cl)nnc2s1	1.1
Cc1ccc(CNC(=O)c2oc3ccc(S(=O)(=O)N4CCOCC4)cc3c2C)cc1	i
C=CCNc1nc(-c2c(C)nc3sccn23)cs1	5.1
O=C(c1cc2ccccc2oc1=O)N(Cc1ccco1)C1CCS(=O)(=O)C1 (stereo unspecified)	i
Cc1cccc(C)c1NC(=O)C1(NC(=O)C2CCCN2C(=O)OC(C)(C)C)CCCCC1 (stereo unspecified)	0.1
O=C(NCC1CCCO1)C(c1cccnc1)N(C(=O)Cc1cccs1)c1ccccc1 (stereo unspecified)	0.9
Cc1ccc(C2C(C#N)=C(N)Oc3nc(-c4ccccc4)[nH]c32)o1 (stereo unspecified)	i
O=C1Cc2ccccc2C(=O)N1CCc1ccccc1	0.5
CCOC(=O)N1CCN(C(=O)CS(=O)(=O)c2cn(Cc3ccccc3C)c3ccccc23)CC1	i
COc1ccc(S(=O)(=O)/N=C2/NC(=O)/C(=C\c3cc(OC)c(OC)cc3[N+](=O)[O-])S2)cc1	2.1
Cc1ccc(S(=O)(=O)c2c(C)nn(C(C)(C)C)c2OC(=O)C(C)(C)C)cc1	0.9
Cc1cc(C)nc(N2CCC(C(=O)NC3CCCc4ccccc43)CC2)n1 (stereo unspecified)	i
O=C(CNC(=O)Cc1ccccc1)NCC(=O)OCc1ccc(C(=O)c2ccccc2)cc1	i
CC(C)NC(=O)COC(=O)c1cc(=O)[nH]c2ccccc12	i
N/C(CCCN1CCCCC1)=N/O	0.1
CCOC(=O)CC1=C(C(=O)OCC)C(c2cc(OC)c(OC)cc2OC)C(C#N)=C(N)O1 (stereo unspecified)	i
COC(=O)CNC(=O)CNC(=O)Nc1ccccc1Cl	i
CCN(CC)C(=O)CSc1nc2ccc(NC(=O)CSc3nnc(N)s3)cc2s1	i
CNS(=O)(=O)c1cccc(C(=O)OCC(=O)N2CCc3ccccc3C2)c1	1.5
Cc1cc(NC(=O)c2cnn3c(C(F)F)cc(-c4ccccc4)nc23)no1	0.4
O=C(O)c1cc(NCc2c(F)cccc2Cl)ccc1N1CCOCC1	i
O=C(NCCNC(=O)c1cc(OCC(F)(F)F)ccc1OCC(F)(F)F)Nc1ccc(Cl)cc1	i
COc1ccc(C(=O)NCCSc2ccccn2)cc1	1.1
CCCCNC(=O)CCC(=O)Nc1ccc2nc(N3CCOCC3)cc(C)c2c1	0.6
O=C(NC1CCCCC1)c1cc(-c2ccco2)on1	1.1
Cc1nc2sc(C(c3ccco3)N3CCC(C)CC3)c(O)n2n1 (stereo unspecified)	0.8
Cc1c(C(=O)O)oc2ccc(S(=O)(=O)NCc3ccccc3)cc12	0.2
CCCCCCC(C)n1[nH]c(=O)c2c(C)cc(=O)[nH]c21 (stereo unspecified)	i
Cc1ccc(-c2nnc3n2CCCCC3)cc1	i
S=C(c1ccc(-c2ccccc2Cl)o1)N1CCOCC1	0.4
COc1ccc(C(=O)CSc2nccc(=O)[nH]2)cc1	i
CC(C)(C)c1ccc(NC(=S)NCc2cccs2)cc1	0.4
Cc1ccc(COn2c(-c3ccc(Cl)cc3)nc3ccc([N+](=O)[O-])cc32)cc1	i
COc1ccc(NC(=O)C2C(=O)N(C)C3(C)CC2c2ccccc2O3)cc1 (stereo unspecified)	i
O=C(C1CCCCC1)N1CCN(c2ccccc2F)CC1	i
CCOc1nc(N2CCCCC2)nc(-n2cc(-c3ccccc3)nn2)n1	0.2
COc1cc(S(=O)(=O)Nc2cccnc2)ccc1F	0.7
O=C1CC(SCc2nc3ccccc3[nH]2)C(=O)N1c1cccc(F)c1 (stereo unspecified)	0.3
CCN(CCCNC(=O)CCc1nc(-c2ccc(C)cc2)no1)c1cccc(C)c1	0.1
N#Cc1c(NC(=O)c2cc(C3CC3)on2)sc2c1CCC2	i
(listing goes on)
SMILES	H5N1 CPE
COc1cc(S(=O)(=O)Nc2ncccc2C)c(OC)cc1Cl	1.7
COc1ccc(N=C2S/C(=C\c3ccc(C)s3)C(=O)N2CC(C)C)cc1	0.1
O=C(O)CCSc1nnnn1-c1ccccc1	0.2
O=C(CNC(=O)c1ccco1)NCC(=O)OCc1ccc(Cl)cc1	0.6
COCc1nc2ccccc2n1Cc1ccccc1Br	0.6
CCOC(=O)Nc1cc(C)ccc1OC	0.1
COc1ccccc1N/C(=N/S(=O)(=O)c1ccc(C)cc1)c1ccc(Cl)cc1	0.2
CCOC(=O)c1c(C)n(C)c2ccc(OC(=O)c3ccoc3)cc12	i
COc1ccc(S(=O)(=O)N(C)CC(=O)N2CCC(C(N)=O)CC2)cc1	0.4
Cn1cccc1Cc1nnc(SCC(=O)Nc2cccc(F)c2)n1CCc1ccccc1	0.5
CC1Cc2ccccc2C(=O)N1 (stereo unspecified)	0.6
CNC(=S)N1N=C(c2ccc(OC)cc2)CC1c1ccc(N(C)C)cc1 (stereo unspecified)	1.4
COc1ccc(Cl)cc1C(=O)Nc1ccccc1N1CCN(C)CC1	i
COc1ccc(N2C(=O)C3CCCN3C2c2ccc(F)cc2)cc1Cl (stereo unspecified)	i

An excerpt; count on the stated rates, not on these rows.
